Assay outcomes as filed in PubChem.
Sa ugtP lethal – growth inhibition of ugtP-null S. aureus, primary screen, RN4220 ugtP deletion, OD600; growth inhibition, % (concentration not given with the values); hit rate 0.54% among 330,000; 16 h; some inactives read as strong as hits;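 active = z-score under -3 and OD600 up to 0.15 on both plates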;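 note: plate controls were untreated wells for no effect and antibiotic for full effect; wells of about 80 µL received 100 nL stock; the first replicate is given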
Autofluor counter – flagged as autofluorescent in microsphere protease counterscreen | compound autofluorescence counterscreen, microsphere flow cytometry; stronger effect = higher value | fluorescence intensity (concentration not given with the values) | hit rate 3.1% among 360,000 | AID 624483;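 active = at least 3 SD above the mean of all compounds, about 16000 in these data; inconclusive = too few beads counted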;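 note: 100 nL of 1 mM stock went into each well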
Sa RN4220 lethal – growth inhibition of S. aureus RN4220, primary screen, OD600 | AID 1259311, 2017 | inhibition, % (concentration not given with the values) | hit rate 0.33% among 330,000 | 16 h;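 active = z-score of -3 or lower and OD600 up to 0.18 on both plates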;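 note: plate controls were untreated cells for no effect and reference antibiotic for full effect; stock transfer was 100 nL into about 80 µL; one replicate is shown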
BJeLR viability – MLPCN primary cell-based screen for lethality selective to Ras in HRASV12 cells; BJeLR (HRASV12) viability, CellTiter-Glo ATP luminescence, 48 h; reference of the scale not given here; inhibition, % (concentration not given with the values); hit rate 0.17% among 300,000; AID 1554, 2009;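 active = replicate mean above 50%; inconclusive = above 50% but judged a plate artefact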;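 note: 50 nL library stock added to about 25 µL; numbers are from one replicate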
PrP UTR inh – inhibition of PrP 5' UTR reporter expression. cell-based PrP 5' UTR mRNA reporter, plate reader. inhibition, % (test concentration not listed). hit rate 0.35% among 340,000. AID 488862, 2010;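 active = every replicate at 50% or more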;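 note: 0 = median of the neutral control wells; tested in H4 reporter cells; numbers are from one replicate; inactives centre near -14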
Mtb hypoxia inh – PubChem AID 1159583; M. tuberculosis hypoxia-regulated fluorescent reporter, fluorescence; fluorescence inhibition, % (test concentration not listed); hit rate 0.1% among 300,000;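 active = 35 to 45% if threefold the growth effect, above 45% if 1.5-fold the growth effect; inactive = the rest, general growth blockers included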;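 note: wells of about 50 µL received 100 nL stock; 0% = vehicle wells and 100% = reference inhibitor wells; whole bacteria with a GFP reporter of the hypoxia response; strong numbers were not always called active; many hits fall short of the cut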
Mtb hypoxia inh growth – second read-out of Mtb hypoxia inh, no call of its own (marks repeat the call); growth inhibition, %; measured here: M. tuberculosis growth (absorbance);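 0% = vehicle and 100% = reference antibiotic; read after six days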
The depositor's hits bear a star; u = inconclusive; x = not tested or not shown.

SMILES	Sa ugtP lethal	Autofluor counter	Sa RN4220 lethal	BJeLR viability	PrP UTR inh	Mtb hypoxia inh	Mtb hypoxia inh growth
COC(=O)c1[nH]c(C)c(/C(O)=C2\C(=O)C(=O)N(CCN(C)C)C2c2ccco2)c1C (stereo unspecified)	-3.8	11077	-2.3	9.9	3.4	-12.7	-3.9
CCOc1ccc(NC(=O)NC2CCS(=O)(=O)C2)cc1 (stereo unspecified)	3.5	3415	4.2	-3.3	-47.9	9.4	0.2
C/C(=N\OCC(=O)N/N=C/c1ccc(C)cc1O)c1cccs1	x	3383	x	2.7	-4.9	x	x
Cc1ccc(N2CCN(C(=O)C3CCCN(c4ncnc5c4nc4n5CCCCC4)C3)CC2)c(C)c1 (stereo unspecified)	-5.4	4831	-3.0	-3.7	13.2	2.5	2.4
S=c1[nH]nc(Cn2nnc3ccccc32)n1-c1ccccc1	1.5	4276	7.8	2.6	-12.9	10.9	7.7
CCOC(=O)/C(C#N)=C1/SC(CC)C(=O)N1c1ccc(C)cc1 (stereo unspecified)	4.6	2413	1.4	-4.5	-30.8	x	x
Cc1ccc(C(=O)C[n+]2ccc3ccccc3c2)cc1	7.2	4931	5.9	0.0	-14.7	9.5	3.1
OC(c1cccnc1)c1cccs1 (stereo unspecified)	-4.3	10463	8.5	-9.1	-24.1	5.6	5.3
CCc1cc(=O)oc2cc(C)cc(OCC(=O)NC3CC3)c12	14.7	4478	5.1	-4.0	-10.4	14.3	0.4
Cn1nc(C(=O)N2CCCCC2)c2c1-c1ccccc1S(=O)(=O)C2	4.8	5264	1.9	4.7	-3.6	3.6	7.6
CN(CC(=O)Nc1ccccc1Cl)C(=O)COC(=O)C1CCN(c2ccc(C(F)(F)F)cn2)CC1	1.3	5708	-2.4	-5.5	-15.7	2.5	5.9
COc1ccc(C=NNC(=O)c2nc(-c3ccccc3)n(-c3ccccc3)n2)cc1	4.6	x	-2.3	x	x	-1.9	-1.2
Cc1cc(C)cc(Nc2cnn(C34CC5CC(CC(CC(=O)O)(C5)C3)C4)c(=O)c2Cl)c1	21.8	7229	1.7	-4.8	-14.8	1.0	10.3
Cc1ccc(-n2cc(C(=O)c3ccc(F)cc3)nn2)cc1Cl	0.0	2830	1.3	-3.0	-96.0	x	x
C=CCC(=O)N1CCCC(CCC(=O)NCc2ccccc2F)C1 (stereo unspecified)	3.1	4356	1.2	-1.2	-0.2	12.2	5.4
COc1ccc(C2C(C#N)=C(N)OC3=C2C(=O)CC(C)(C)C3)cc1 (stereo unspecified)	1.4	4133	1.0	6.6	-13.6	2.6	16.8
CCN1C(=O)N[C@@H](CCc2ccccc2)[C@H](C(C)=O)[C@H]1C	x	3358	x	-1.1	66.0*	x	x
Cc1ccc(S(=O)(=O)Cc2ccc(C(=O)NC3CCCC3)o2)cc1	5.3	6161	3.8	8.9	10.4	7.8	5.2
O=C(NCc1cccc(F)c1F)C1CCC(=O)N(C2CCCCCC2)C1 (stereo unspecified)	-1.4	5523	2.9	4.1	-14.3	14.9	11.7
COc1ccc(CNC(=O)Cn2nc(C)c3c(C)n(-c4ccc(C)cc4)nc3c2=O)cc1OC	8.6	4111	5.1	-5.8	4.1	-2.6	-5.5
CC(=O)N1CCN(c2ccc(NCc3ccc4c(c3)OCO4)cc2)CC1	-3.6	4138	4.2	-3.1	2.4	x	x
Cc1nc2ccccc2c(=O)n1/N=C/c1ccco1	x	3278	x	-0.8	-7.6	x	x
Cc1nn(Cc2ccc(Cl)cc2)c(C)c1NC(=O)c1ccc([N+](=O)[O-])cc1	-1.7	9815	6.8	9.1	-8.5	6.6	6.1
COc1ccc(OCC(=O)OCC(=O)NCc2ccc(F)cc2)cc1	2.5	2497	3.2	-16.8	-9.5	5.1	5.8
CCOC(=O)C1(CCCc2ccccc2)CCN(C(=O)COC)CC1	-2.0	4053	8.8	-3.9	-14.5	-2.2	4.3
The results go on:
SMILES	Sa ugtP lethal	Autofluor counter	Sa RN4220 lethal	BJeLR viability	PrP UTR inh	Mtb hypoxia inh	Mtb hypoxia inh growth
COc1cccc(NS(=O)(=O)c2ccc(-c3coc(C)n3)cc2)c1	0.5	4484	4.3	-0.8	-16.0	7.4	-8.8
Cc1cc(C)c(NC(=O)c2ccc3nccnc3c2)c(C)c1	0.0	u	1.0	x	-6.1	-2.4	7.9
CN1C(C(=O)Nc2ccccn2)=C(O)c2sc(Cl)cc2S1(=O)=O	x	5390	x	-7.7	-19.1	x	x
CC(C)c1ccc(CNn2cnnc2)cc1	x	3571	x	-3.0	-32.5	x	x
O=C(Nc1ccc(-c2nnc3n2CCCCC3)cc1)c1ccco1	10.3	2605	0.5	-3.9	-28.1	3.9	3.6
CCOc1cc(C(=O)NCc2nnc(SCC(=O)OC)n2C)cc(OCC)c1OCC	-2.6	10330	1.8	-7.0	-27.2	-8.6	2.4
COc1ccc(NC(=S)N(CCCN2CCCCCC2)Cc2cccs2)cc1	0.2	4395	2.3	-18.7	-3.9	-14.0	-0.6
O=[N+]([O-])c1ccccc1N=Nc1ccc(O)cc1O	-8.2	2783	6.1	x	x	5.1	5.7
Cc1ccc2scc(CN3CCCC3)c2c1	0.5	4222	2.9	11.8	37.5	2.4	0.7
COc1ccc(NC(=O)CCCn2cnc3ccccc3c2=O)cc1	2.4	3824	3.3	-1.5	-9.0	-4.1	8.0
Cc1cc(=O)cc(C)n1-c1ccc(Br)cc1	-0.8	4854	-1.8	1.2	-16.5	7.6	-4.7
COC(=O)c1ccc(COc2ccccc2/C=N/NC(=O)c2cccnc2)cc1	x	4261	x	-1.1	-34.8	x	x
COc1cccc2c(Nc3ccccc3C)cc(C)nc12	8.4	4889	-2.6	0.0	-29.2	10.5	10.9
O=C(CSC1=NCCS1)Nc1nc2c(s1)CCCC2	3.3	13691	2.8	4.7	-22.0	8.9	8.6
CC(NC(=S)Nc1c(Br)cccc1OC(F)F)C(C)(C)C (stereo unspecified)	-5.6	2057	3.2	3.1	-15.3	0.2	7.9
O=C(COC(=O)CSc1cc(Cl)ccc1Cl)Nc1ncc(C(F)(F)F)cc1Cl	-3.8	10352	8.0	11.0	-7.4	9.0	3.8
Cc1cnc(NC(=O)c2ccc3ncsc3c2)s1	6.5	4416	3.2	x	-115.0	-4.4	-4.4
CCn1c(SCC(N)=O)nnc1-c1ccc(S(=O)(=O)N2CCN(C)CC2)cc1	-1.7	u	-0.5	-3.2	-0.1	0.0	-5.9
O=C(Nc1ccc(SC(F)F)cc1)C1=COCCO1	-1.5	10139	2.4	5.8	-72.0	6.6	-0.6
CCCCN(C(=O)C1CCC1)c1c(N)n(Cc2ccccc2)c(=O)[nH]c1=O	1.4	4969	2.7	x	x	-3.1	18.3
C=CCN(c1ccccc1OC)S(=O)(=O)c1cccc(C(=O)OCC(=O)N2CCOCC2)c1	11.3	x	12.1	x	-14.7	-3.3	-0.3
CC(Cc1cccs1)N(Cc1ccc(Cl)cc1)C(=O)c1ccncc1 (stereo unspecified)	6.5	3621	8.1	2.3	-32.8	12.2	11.6
CCCCCCNS(=O)(=O)c1ccc(Cl)s1	-7.4	10850	3.4	x	-30.3	23.0	5.6
Cc1ccc(/C=C/C(=O)O)cc1S(=O)(=O)Nc1ccc2c(c1)OCO2	-3.3	2310	-1.2	-2.8	-23.5	-3.6	4.9
Clc1ccc2nc3c4ccccc4cnn3c2c1	-8.6	2515	4.6	1.0	-99.5	1.1	1.2

Some of the entries so far, with bars between the fields:
structure | Sa ugtP lethal | Autofluor counter | Sa RN4220 lethal | BJeLR viability | PrP UTR inh | Mtb hypoxia inh | Mtb hypoxia inh growth
CCN1C(=O)N[C@@H](CCc2ccccc2)[C@H](C(C)=O)[C@H]1C | x | 3358 | x | -1.1 | 66.0* | x | x
Cc1ccc(S(=O)(=O)Cc2ccc(C(=O)NC3CCCC3)o2)cc1 | 5.3 | 6161 | 3.8 | 8.9 | 10.4 | 7.8 | 5.2
O=C(NCc1cccc(F)c1F)C1CCC(=O)N(C2CCCCCC2)C1 (stereo unspecified) | -1.4 | 5523 | 2.9 | 4.1 | -14.3 | 14.9 | 11.7
COc1ccc(CNC(=O)Cn2nc(C)c3c(C)n(-c4ccc(C)cc4)nc3c2=O)cc1OC | 8.6 | 4111 | 5.1 | -5.8 | 4.1 | -2.6 | -5.5

Next records
SMILES	Sa ugtP lethal	Autofluor counter	Sa RN4220 lethal	BJeLR viability	PrP UTR inh	Mtb hypoxia inh	Mtb hypoxia inh growth
COc1cccc(NC(=O)CN2C(=O)NC3(CCc4ccccc43)C2=O)c1 (stereo unspecified)	3.5	3524	3.2	x	-24.7	10.3	6.2
Cc1ccc(S(=O)(=O)NCC(=O)N/N=C/c2ccc(Cl)cc2)cc1	x	9103	x	2.4	-50.6	x	x
O=C(Nc1ccnn1C1CCN(CC2CC=CCC2)CC1)c1ccccc1Cl (stereo unspecified)	0.8	6235	2.5	11.0	-9.6	16.0	1.0
COc1cc(OC)cc(C(=O)NNC(=O)CCNS(=O)(=O)c2ccc(Br)cc2)c1	15.0	2788	5.6	x	-13.5	x	x
CN1CCN(S(=O)(=O)c2ccc(Oc3cccc(C(F)(F)F)c3)nc2)CC1	4.6	6436	2.7	-5.5	-9.8	-1.8	6.4
O=C(NNC(=O)c1ccccc1C(=O)O)c1ccc(S(=O)(=O)N2CCCCC2)cc1	12.9	4931	7.0	-6.1	-10.7	-1.7	-6.3
COc1ccc(C(=O)OCC(=O)NC23CC4CC(CC(C4)C2)C3)c(OC)c1OC	2.1	3933	7.3	x	-8.8	-1.0	9.0
O=S1(=O)N=C(N(CCO)N=Cc2ccncc2)c2ccccc21	-5.2	x	0.0	x	x	7.9	2.5
Cn1c(SCc2nc3cc(C(=O)O)ccc3c(=O)[nH]2)nnc1C(F)(F)F	7.5	3768	14.2	-4.0	-17.7	-6.2	1.1
c1cc2c(cc1-c1csc(NNC3=NCCCCC3)n1)OCCO2	13.3	x	17.7	9.4	x	x	x
COCc1cc(C)nc(SCC(=O)Nc2ccc3[nH]c(=O)[nH]c3c2)c1C#N	1.7	4637	8.8	2.0	2.6	-5.2	-7.8
CN1CCN(C(CNC(=O)C(=O)Nc2ccc3c(c2)OCO3)c2ccc(F)cc2)CC1 (stereo unspecified)	5.1	5737	0.4	5.1	-5.9	4.3	1.0
O=C(CCC(=O)OCC(=O)c1ccc(-c2ccccc2)cc1)Nc1cccc2cccnc12	3.2	4590	3.1	0.6	-32.4	x	x
CCn1c(C)nc2cc(C(=O)OC(C(F)(F)C(F)F)C(F)(F)C(F)F)ccc21	3.4	11349	5.5	-1.6	-78.4	14.5	12.0
CC1=CS(=O)(=O)CC1Sc1nc2ccccc2[nH]1 (stereo unspecified)	12.5	6141	3.9	-1.6	-10.5	12.3	8.4
COc1ccc(NC(=O)c2c(NC(=O)CCC(=O)O)sc3c2CCCCC3)cc1	8.2	4088	2.3	3.7	-5.5	6.2	13.8
COc1ccc([N+](=O)[O-])cc1N(CC(=O)NCCC1=CCCCC1)S(C)(=O)=O	-2.6	2165	5.6	-1.2	-8.7	-3.9	6.6
CCOc1ccc(OCC)c(Nc2cc(C)nc3nc(C)nn23)c1	-1.9	4859	1.2	-4.1	-5.8	x	x
CN(C(=O)COc1ccc2ccc(=O)oc2c1)C1CCS(=O)(=O)C1 (stereo unspecified)	-2.8	4452	-2.3	2.8	-6.2	-9.9	-11.1
O=c1c2ccccc2nc(/C=C/c2ccc(Br)cc2)n1CCO	-2.0	4617	8.5	-8.1	x	9.3	-5.0
CCc1cc(=O)oc2cc(C)cc(OCC(=O)N[C@@H](CSCc3ccccc3)C(=O)O)c12	9.6	5574	1.7	-4.5	-15.7	x	x

Full records, quoted from the list. Order of values: Sa ugtP lethal | Autofluor counter | Sa RN4220 lethal | BJeLR viability | PrP UTR inh | Mtb hypoxia inh | Mtb hypoxia inh growth
`COc1cccc2c(Nc3ccccc3C)cc(C)nc12` is listed as 8.4 | 4889 | -2.6 | 0.0 | -29.2 | 10.5 | 10.9
`COC(=O)c1[nH]c(C)c(/C(O)=C2\C(=O)C(=O)N(CCN(C)C)C2c2ccco2)c1C` (stereo unspecified) is listed as -3.8 | 11077 | -2.3 | 9.9 | 3.4 | -12.7 | -3.9
